Compound activity from PubChem BioAssay.
Ecoli growth – blocks Escherichia coli growth; OD600, 23 h; active compounds read low; OD600 absorbance (test concentration not listed); 330,000 compounds, 0.21% hits;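 active means OD600 absorbance below the run mean of sample wells minus 3.6 SD, in any replicate, cut at about 0.56 in these data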;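 further: stock transfer was 300 nL into about 60 µL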
FGF22 binding – shifts melting point of recombinant human FGF22 | recombinant FGF22 thermal shift, SYPRO orange fluorescence; percent of sucrose octasulfate shift, DMSO zero | calls only at 9.99 µM | 340,000 compounds, 1.5% hits | AID 651658;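 active means melting point raised past a set limit in the mean and every replicate; three in four hits are not shown here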
Target sequence (Q9HCT0 whole entry, looked up): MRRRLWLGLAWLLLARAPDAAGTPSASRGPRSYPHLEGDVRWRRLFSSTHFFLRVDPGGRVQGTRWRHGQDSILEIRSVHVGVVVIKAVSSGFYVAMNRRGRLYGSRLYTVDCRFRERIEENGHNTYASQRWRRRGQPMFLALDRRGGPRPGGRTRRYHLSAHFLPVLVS
Beta2AR agonist – agonists of human beta-2 adrenergic receptor inducing internalization | P07550 | Am2.2-beta2AR cells, FAP receptor internalization, flow cytometry; reference of the scale not given here | response, % (concentration not given with the values) | 340,000 compounds, 0.43% hits | AID 504454;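 active means response above a set limit, near 3 SD of response in nonfluorescent compounds, cut at about 42% in these data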;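 further: stock transfer was 100 nL into about 11 µL; a reference agonist was the positive control; negative values mostly stem from fluorescent compounds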
HNF4A DNA FP – change in binding of human HNF4 alpha to DNA. AID 1224865. activity change, % at 10 µM. P41235. 360,000 compounds, 0.3% hits. HNF4a-FITC DNA binding, fluorescence polarization, 1 h; in the data active means activity change above about 30%, passing the limit was not always enough;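 further: controls were the assay level and a saturating level of protein; the project sought stronger binding though the title names inhibitors; some compounds called inactive have numbers as strong as hits; positive values seem to mean higher polarization but the record does not say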
Target sequence (P41235 whole entry, looked up): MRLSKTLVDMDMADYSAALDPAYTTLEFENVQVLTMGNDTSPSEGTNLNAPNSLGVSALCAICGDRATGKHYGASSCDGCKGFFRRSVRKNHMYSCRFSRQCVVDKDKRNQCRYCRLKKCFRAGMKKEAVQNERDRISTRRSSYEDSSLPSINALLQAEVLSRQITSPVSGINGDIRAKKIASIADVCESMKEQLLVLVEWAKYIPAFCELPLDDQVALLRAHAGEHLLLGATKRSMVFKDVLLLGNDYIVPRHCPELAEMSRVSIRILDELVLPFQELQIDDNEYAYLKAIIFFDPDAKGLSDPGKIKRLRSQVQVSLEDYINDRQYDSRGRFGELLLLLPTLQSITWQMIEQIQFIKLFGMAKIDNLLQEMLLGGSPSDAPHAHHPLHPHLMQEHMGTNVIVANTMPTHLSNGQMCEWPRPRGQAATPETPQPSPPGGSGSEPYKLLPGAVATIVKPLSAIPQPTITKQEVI
ALR inh – human ALR oxidase inhibition via reduced H2O2; P55789; purified ALR, DTT oxidation, H2O2 HRP-luminol luminescence; inhibition, % (no concentration beside the values); 290,000 compounds, 3.8% hits; AID 485317;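 active means mean and each replicate at 75% or more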;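 further: stock transfer was 7.5 nL into about 7.5 µL; 0% = neutral wells and 100% = wells with inactivated enzyme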
Target sequence (P55789 whole entry, looked up): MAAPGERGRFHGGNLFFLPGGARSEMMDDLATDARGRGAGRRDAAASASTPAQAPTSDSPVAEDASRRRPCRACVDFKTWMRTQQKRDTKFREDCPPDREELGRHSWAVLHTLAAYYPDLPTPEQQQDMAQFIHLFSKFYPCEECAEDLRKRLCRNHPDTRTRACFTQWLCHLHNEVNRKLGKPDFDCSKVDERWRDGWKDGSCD
LANA-H2B inh – blocks KSHV LANA binding to histone H2A/H2B | Q9QR71 | cell-free LANA-H2A/H2B peptide, fluorescence polarization | inhibition, % (no concentration beside the values) | 320,000 compounds, 0.6% hits; in the data active means inhibition mostly above about 10%, no sharp cut-off; inactive means mostly below about 6.7%;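 further: stock transfer was 7.5 nL into about 10 µL; 0% = median of vehicle wells and 100% = median of positive control wells; one replicate is shown; the record names a cut of 25% in any replicate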
UCH37 inh – human UCH37 deubiquitinating enzyme inhibition; Q9Y5K5; purified proteasome/UCH37, Ub-AMC cleavage fluorescence; inhibition, % (test concentration not listed); 330,000 compounds, 0.33% hits;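 active means mean of two replicates above 20%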;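 further: 0% = compound-free wells with enzyme and 100% = wells lacking proteasome; stock transfer was 100 nL into about 20 µL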
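Reagent: Ub-AMC substrate; assay system: Proteasome-associated human UCH37 deubiquitinase; controls: no-proteasome and no-compound wells; read-out: % inhibition of Ub-AMC cleavage fluorescence; timing: 30 min preincubation with enzyme, 25 min cleavage at room temperature; signal: AMC fluorescence from Ub-AMC cleavage, excitation 355 nm, emission 460 nm; buffer or medium: Tris-HCl pH 7.4 plus ovalbumin, ATP-MgCl2, DTT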
Active calls of the source: *; i = inactive; · = no result given. These rows are one share of the data. The share of hits here may be higher or lower than overall.

Ecoli growth	FGF22 binding	Beta2AR agonist	HNF4A DNA FP	ALR inh	LANA-H2B inh	UCH37 inh	Compound
0.644	i	-7.3	6.9	-3.9	1.1	3.5	CCC(CO)Oc1cc(NC(=O)c2ccc(OC)cc2)c2ncn(C(C)C)c2c1 (centres undefined)
·	i	-2.8	1.5	-4.4	-4.5	·	O=C(NC(=S)NC1CCSC1=O)c1ccc([N+](=O)[O-])cc1 (centres undefined)
0.647	i	-2.8	-6.1	-7.3	4.2	2.3	CC1(C)Oc2ccc(C(=O)NN)cc2NC1=O
0.71	·	-23.0	-1.2	2.7	-3.5	0.6	O=C(c1ccccc1)c1nc[nH]c1C(=O)Nc1ccccn1
0.673	i	-0.9	0.4	·	-1.2	0.6	CCCCn1c(N)c(N(CC(C)C)C(=O)c2cccc(S(=O)(=O)N(C)c3ccc(C)cc3)c2)c(=O)[nH]c1=O
0.737	i	-2.3	1.8	-12.0	0.4	2.9	Cn1nc(C(=O)OCC(=O)Nc2ccc(C(N)=O)cc2)c2ccccc2c1=O
0.654	i	3.6	-0.1	2.9	0.0	5.5	Cc1occc1-c1nnc(SCC(=O)N(C)c2ccccc2)n1C
0.685	·	-5.6	4.2	-13.4	1.3	-3.1	COc1ccc(OC)c(NC(=O)Nc2cccc(Cn3cccn3)c2)c1
0.676	i	-0.8	2.2	10.6	-3.3	-5.6	COc1ccc2c(-c3ccccc3)cc(SC(C)C(N)=O)nc2c1 (centres undefined)
0.676	i	-5.0	0.9	-3.6	-6.2	4.3	COc1cc(SC)ccc1C(=O)N(CC(=O)Nc1ccccc1Br)Cc1ccco1
0.702	i	-8.0	0.0	·	4.4	0.7	Cc1ccccc1N1C(=O)C2CCCN2C1=S (centres undefined)
0.682	·	0.4	-0.7	-4.1	-4.0	2.8	CCN(CC)S(=O)(=O)c1cccc(C(=O)NC(Cc2c[nH]c3ccccc23)c2nnc3n2CCC3)c1 (centres undefined)
0.742	·	-3.0	1.5	2.6	7.0	11.3	CCC1(C)Cc2c(C#N)c(N)n(N)c(=S)c2CO1 (centres undefined)
0.723	i	0.0	2.0	-4.9	-6.4	3.6	O=C(NC1CC1)c1nc2c(nnn2Cc2ccccc2Cl)c(=O)[nH]1
0.67	i	-7.5	4.1	·	·	5.8	CCCn1c(SCC(=O)Nc2ccccc2Cl)nc(O)cc1=O
0.691	·	-2.7	0.3	0.8	-2.8	6.7	Cc1cc(C)n2nc(C(=O)Nc3ccc(N4CCOCC4)cc3)nc2n1
0.809	·	1.0	3.0	-11.9	-2.4	3.0	Cn1c(SCC(=O)c2ccc3c(c2)Cc2ccccc2-3)nnc1-c1ccccc1
0.666	i	21.5	-3.4	72.8	6.4	i	COc1ccc(CCNc2oc(-c3cccc4ccccc34)nc2P(=O)(OC)OC)cc1OC
0.712	i	-4.7	-4.8	-11.6	6.7	2.6	NC(=O)c1cc[n+](Cc2ccccc2Cl)cc1
0.679	i	-5.0	-1.8	·	-4.8	-0.6	O=C(NCCc1ccccc1)C1CCC(=O)N1CCc1ccccc1 (centres undefined)
0.704	·	27.9	4.1	2.1	2.3	1.5	Cc1ccc(Nc2nc(CSc3nnc(-c4ccccc4)n3C)cs2)cc1
0.72	·	10.2	1.8	-30.5	-1.0	0.6	COc1cccc(S(=O)(=O)N2CCN(c3ccccc3F)CC2)c1
0.695	i	-1.5	-2.0	·	·	1.1	Cc1c(Cl)cnc(NC(=O)COC(=O)[C@H](C)NC(=O)c2ccccc2)c1Cl
0.689	i	9.1	9.0	0.6	0.8	1.6	CSc1ccccc1C(=O)NCc1ccc(C)cc1
0.714	·	2.2	-1.1	11.7	-0.4	2.9	CCNC(=O)NC(=O)C(C)Sc1nnc(COc2ccccc2Cl)o1 (centres undefined)
0.653	·	-6.9	-2.6	4.9	11.1	4.0	CCOC(=O)c1nc(Nc2ccccc2)c2ccccc2n1
0.699	·	15.1	2.8	12.8	-3.0	0.1	c1ccc2c(CCNc3ncnc4nc[nH]c34)cccc2c1
0.676	i	14.6	1.2	-3.8	-3.5	4.3	CCOC(=O)c1c(NC(=O)CSC(=S)N(C)C)sc(C)c1C
0.657	i	2.2	5.3	31.5	2.3	0.9	CCOc1cc(C2NC(=O)NC2=O)ccc1O (centres undefined)
0.65	i	-0.9	-3.2	·	-7.9	-12.2	Cc1cc(=O)oc2cc(OC(C)C(=O)Nc3ccc(C(N)=O)cc3)ccc12 (centres undefined)

An excerpt from above in order of molar mass, lowest first:
Ecoli growth	FGF22 binding	Beta2AR agonist	HNF4A DNA FP	ALR inh	LANA-H2B inh	UCH37 inh	Compound
0.71	·	-23.0	-1.2	2.7	-3.5	0.6	O=C(c1ccccc1)c1nc[nH]c1C(=O)Nc1ccccn1
0.72	·	10.2	1.8	-30.5	-1.0	0.6	COc1cccc(S(=O)(=O)N2CCN(c3ccccc3F)CC2)c1
0.704	·	27.9	4.1	2.1	2.3	1.5	Cc1ccc(Nc2nc(CSc3nnc(-c4ccccc4)n3C)cs2)cc1
0.666	i	21.5	-3.4	72.8	6.4	i	COc1ccc(CCNc2oc(-c3cccc4ccccc34)nc2P(=O)(OC)OC)cc1OC
0.676	i	-5.0	0.9	-3.6	-6.2	4.3	COc1cc(SC)ccc1C(=O)N(CC(=O)Nc1ccccc1Br)Cc1ccco1

Further entries:
Ecoli growth	FGF22 binding	Beta2AR agonist	HNF4A DNA FP	ALR inh	LANA-H2B inh	UCH37 inh	Compound
0.578	i	-1.5	2.9	22.3	7.9	2.2	COc1ccccc1OCC(=O)NCCS(=O)(=O)N1CCN(c2ccccc2)CC1
0.701	i	-0.8	-2.6	-0.1	2.3	0.8	Cc1csc(NC(=O)c2ccc(N3CCCC3=O)cc2)n1
0.646	i	0.9	-2.5	-0.2	2.5	1.7	Cc1ccc(C(C)C)cc1OCC(=O)NC1CCCCCCC1
·	·	1.5	-0.7	-11.9	0.4	·	O=[N+]([O-])c1ccc(/C=N/n2c(COc3ccccc3)n[nH]c2=S)cc1
0.779	·	4.3	-0.1	-5.8	0.8	5.2	CC(C)C(O)(C#CCN1CCCC1)c1ccccc1 (centres undefined)
0.706	i	-8.8	-2.8	-14.2	-1.0	4.8	CN(CC(=O)NC1CCCCC1)S(=O)(=O)c1ccc2c(c1)c(=O)n(C)c(=O)n2C
0.73	i	6.5	0.0	-6.2	-8.3	0.3	CCOc1ccc(OCC)c(NC(=O)C2CCCN(c3nc(C)cc(C)n3)C2)c1 (centres undefined)
0.701	i	-2.5	-0.3	-0.6	6.2	1.1	O=C(CCc1nc2ccccc2c(=O)[nH]1)OCC(=O)N1CCc2ccccc21
·	i	-6.8	-2.3	·	·	·	CCOC(CN=c1nc(N(C)C)ss1)OCC
·	i	-5.5	-0.8	99.1*	-0.7	·	COc1cc(/C=N/n2c(C3CCCCC3)n[nH]c2=S)cc(OC)c1O
0.755	i	-23.1	0.3	·	-0.2	9.3	CCCCc1nn(-c2cc(Cl)ccc2OC)c2c1C(=O)CC(C)(C)C2
0.667	i	0.3	2.0	-2.6	-0.1	0.0	N#CCCN(C(=O)CSc1nc2ccccc2c(=O)[nH]1)c1ccc(F)cc1
·	i	0.3	11.5	-1.9	2.7	-53.8	O=c1[nH]c(-c2ccc(-c3cccc(Cl)c3)o2)nc2ccccc12
0.699	i	-6.5	-1.9	-7.5	8.6	2.8	COCCn1c(SCC(=O)Nc2cccc(OC)c2)nnc1-c1ccccc1
0.693	i	5.7	3.5	2.1	-1.6	0.2	COc1ccc(NC(=S)N2CCN(S(=O)(=O)c3ccc(F)cc3)CC2)cc1OC
0.657	i	-8.9	-2.4	2.3	5.0	4.4	O=C(CCCNC(=O)c1ccc(Cl)cc1)Nc1ccc(Br)cc1
0.686	i	-3.1	-0.5	-3.2	1.7	2.8	CN(CC(=O)Nc1ccccc1Cl)CC(=O)Nc1cccc2ccccc12
0.646	·	14.3	2.9	-1.1	-1.9	-3.0	O=S(=O)(c1ccccc1)N1CCN(c2cc(-c3ccccc3)nc3ncnn23)CC1
0.71	i	-9.3	14.4	-5.6	-2.5	3.9	CCOC(=O)c1cc([N+](=O)[O-])sc1NC(=O)c1ccc(S(=O)(=O)N2CC3(C)CC2CC(C)(C)C3)cc1 (centres undefined)
0.684	i	-4.8	2.0	-10.2	1.2	1.4	CCC1C(=O)Nc2ccccc2N1C(=O)c1ccc(Cl)nc1 (centres undefined)
·	i	-5.6	-0.1	3.1	-1.6	0.7	N[C@@H](Cc1ccc(O)cc1)c1nnc([C@H](CCC(=O)O)NC(=O)C2CCNCC2)o1
0.745	i	15.4	3.9	·	-1.1	1.3	CCc1nnc(NC(=O)CSc2nnc(Cc3cccn3C)n2CCOC)s1
0.698	·	-8.4	1.7	-1.7	-1.5	0.9	O=C(c1ccc(SCc2cccc(Br)c2)c([N+](=O)[O-])c1)N1CCN(c2ccccn2)CC1
0.704	i	-13.8	0.0	-5.5	-0.1	-1.1	O=C(CSc1ccc(Cl)cc1)NCc1ccco1
0.721	·	0.6	-0.4	1.1	0.1	-1.2	COC(=O)C1CCN(C(=O)COC(=O)CC(NC(N)=O)c2ccc(Cl)cc2)CC1 (centres undefined)
·	i	-1.9	2.5	·	·	·	O=C(Oc1cccc2ccccc12)c1ccccc1
0.772	·	0.3	-6.4	-8.4	1.8	2.0	CCOC(=O)C1=C(C)NC2=C(C(=O)c3ccccc32)C1c1cccnc1 (centres undefined)
0.668	i	-3.1	4.8	-6.8	-0.5	0.7	CC(=O)c1ccc(NC(=O)C[n+]2cccc(C)c2)cc1
0.673	·	16.6	-1.1	-0.5	-0.4	-0.2	CCOC(=O)C1CCN(C(=O)c2n[nH]c(=O)c3ccccc23)CC1
0.676	i	3.3	-1.3	2.0	2.5	3.9	CSc1ccc(C(=O)C2CCCN(C(=O)c3ccc4c(c3)no[n+]4[O-])C2)cc1 (centres undefined)

Reprinted at random: 3 entries already listed, in no set order.
Ecoli growth	FGF22 binding	Beta2AR agonist	HNF4A DNA FP	ALR inh	LANA-H2B inh	UCH37 inh	Compound
·	i	-6.8	-2.3	·	·	·	CCOC(CN=c1nc(N(C)C)ss1)OCC
0.693	i	5.7	3.5	2.1	-1.6	0.2	COc1ccc(NC(=S)N2CCN(S(=O)(=O)c3ccc(F)cc3)CC2)cc1OC
0.698	·	-8.4	1.7	-1.7	-1.5	0.9	O=C(c1ccc(SCc2cccc(Br)c2)c([N+](=O)[O-])c1)N1CCN(c2ccccn2)CC1

The list goes on.
Ecoli growth	FGF22 binding	Beta2AR agonist	HNF4A DNA FP	ALR inh	LANA-H2B inh	UCH37 inh	Compound
0.713	·	4.1	1.5	-5.0	-3.0	0.0	CSc1ncccc1C(=O)OCC(=O)N(CC(C)C)C1CCS(=O)(=O)C1 (centres undefined)
0.687	i	-0.6	4.7	·	-1.9	2.6	COc1ccc(S(=O)(=O)CC2(O)CCN(C(=O)CC(C)C)CC2)cc1
0.656	·	3.7	0.8	-59.0	-0.8	2.8	CCOC(=O)N1CCC(n2c(SCC(=O)N3CCC(C)CC3)nc3ccccc3c2=O)CC1
0.677	i	-7.2	-1.1	-6.4	3.6	0.3	COc1ccc(CN2CCCC(C(=O)N3CCCCC3)C2)cc1 (centres undefined)
0.679	i	4.4	-2.0	-2.3	4.8	3.7	O=C(NCC(c1cccnc1)N1CCOCC1)NC1CCCCC1 (centres undefined)
0.72	·	10.8	2.2	1.4	-7.3	3.2	COCCN1CCN(C(=O)C2CCC(=O)N(Cc3ccccc3OC)C2)CC1 (centres undefined)
0.753	i	-6.1	-1.6	3.8	-0.3	3.5	O=C(CCn1c(=O)oc2ccccc21)NCc1ccco1
0.648	i	-17.6	-0.8	0.0	-3.8	1.2	COc1cc(C(=O)NNC(=O)COc2ccc(C)cc2)ccc1OCC(=O)N1CCOCC1
0.758	·	4.3	-0.1	17.5	-0.6	-1.3	O=C(Cc1ccccc1)N1CCC(C(=O)N2CCN(c3ccc(F)cc3)CC2)CC1
0.669	·	-1.2	-1.3	-15.7	-2.1	4.5	Cc1cc(C)cc(NC(=O)N2CCN(C/C=C/c3ccccc3)CC2)c1
·	i	4.2	-2.1	-11.1	1.4	·	S=C(N/N=C/c1cccc2ccccc12)Nc1cccc(Cl)c1
